# Polio RdRp inh = poliovirus RNA polymerase inhibition; poliovirus polymerase elongation, fluorescence polarization; hits give low values; % elongation, % (compound at 16.7 µg/mL); 0.66% of 150,000 active; AID 588519; in the data active = % elongation below about 90%; also: some results filed as inactive read as strong as hits
# MenB inh = blocks the Mycobacterium tuberculosis MenB enzyme | P9WNP5 | MenB enzyme assay, absorbance read-out; some hits fall short of the stated cut | inhibition, %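 (about 12 µg/mL by stock and volumes)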 | 0.43% of 100,000 active;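 active = mean of two replicates above 30%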;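 also: 0% = no compound and 100% = wells with inactive enzyme; the first replicate is given; strong numbers were not always called active; inactives centre near -10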
# Target sequence (P9WNP5 whole entry, looked up): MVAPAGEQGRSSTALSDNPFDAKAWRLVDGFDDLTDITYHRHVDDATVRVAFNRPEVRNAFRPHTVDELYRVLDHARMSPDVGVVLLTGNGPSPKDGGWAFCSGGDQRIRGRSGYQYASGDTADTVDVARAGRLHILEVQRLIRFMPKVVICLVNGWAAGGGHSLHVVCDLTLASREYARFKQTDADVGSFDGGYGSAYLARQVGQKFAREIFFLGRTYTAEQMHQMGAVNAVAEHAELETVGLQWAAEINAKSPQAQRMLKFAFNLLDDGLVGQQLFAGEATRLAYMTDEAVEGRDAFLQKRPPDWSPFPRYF
# Mtb MbtI inh = inhibitors of Mycobacterium tuberculosis siderophore enzyme MbtI. 0.89% of 100,000 active. P9WFX0. purified MbtI enzyme, fluorescence intensity read-out. inhibition, %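 (about 17 µg/mL by stock and volumes)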. AID 493033;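 active = above 50% in both replicates, above 80% if mildly self-fluorescent; inactive = the rest, strongly fluorescent compounds included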;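 also: 0% = mean of negative and 100% = mean of positive controls; one replicate is shown; some compounds called inactive have numbers as strong as hits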
# Target sequence (P9WFX0 whole entry, looked up): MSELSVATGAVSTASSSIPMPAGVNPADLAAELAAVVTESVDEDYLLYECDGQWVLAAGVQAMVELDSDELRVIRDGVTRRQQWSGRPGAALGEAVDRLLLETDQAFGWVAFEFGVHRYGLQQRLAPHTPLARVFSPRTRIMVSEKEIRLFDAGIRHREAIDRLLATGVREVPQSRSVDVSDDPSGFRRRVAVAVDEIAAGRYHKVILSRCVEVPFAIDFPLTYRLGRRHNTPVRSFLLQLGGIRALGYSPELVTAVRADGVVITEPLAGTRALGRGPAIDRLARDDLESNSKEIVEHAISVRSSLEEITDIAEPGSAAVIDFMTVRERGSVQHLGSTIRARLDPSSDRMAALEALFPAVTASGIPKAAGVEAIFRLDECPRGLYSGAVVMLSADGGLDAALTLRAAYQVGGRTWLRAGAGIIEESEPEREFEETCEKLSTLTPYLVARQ
# Polio RdRp inh intensity = also measured in Polio RdRp inh; calls as there; % elongation; measured here: total intensity read-out; formula for this scale not given here;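 total fluorescence in place of polarization; lower means less elongation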
# * marks the source's active call; other numbers are inactive results; . = no result given; & = joins results of further samples.
SMILES,Polio RdRp inh,Polio RdRp inh intensity,MenB inh,Mtb MbtI inh
O=C(NC1CCCCCC1)c1ccc2c(=O)n3c(nc2c1)CCCCC3,103,104,-5,-2
Cc1cccn2c(=O)c(C=Nc3ccc(Cl)cc3)c(NCCO)nc12,100,99,2,87
O=C(NC1CC1)c1ccc2cn[nH]c2c1,100,100,-5,21
Cc1ccc(C)n1-c1cccc(S(=O)(=O)N2CCOCC2)c1,105,103,.,7
CC(C)(C)C(=O)NCC(c1cccnc1)N1CCN(c2ccccc2)CC1 (configuration not stated),102,102,-61,2
O=C(c1ccc(S(=O)(=O)N2CCOCC2)cc1)N1CCn2c1nc1ccccc12,102,100,-22,1
c1ccc(N=c2oc3ccccc3cc2-c2nc3ccccc3[nH]2)cc1,105,107,-12,40
NC(=O)CSc1nnc(-c2ccco2)n1Cc1ccco1,100,99,5,0
O=C(COc1ccccc1)Nc1ccc(C(=O)c2ccccc2)cc1,104,114,-13,.
COc1cc(C)nc(OCCNS(=O)(=O)c2cc(C)ccc2C)n1,102,101,-16,3
CCNC(=O)c1snc(Nc2ncc(C)o2)c1N,101,103,4,10
COC(=O)CSc1nc2nc3c(cn2n1)C(=O)CC(c1ccco1)C3 (configuration not stated),81,141,-56,-2
N#CCSc1nc2ccc(N3CCOCC3)cc2c(=O)n1CCc1ccccc1,101,98,-19,3
Cc1nn(-c2ccccc2)c(OC(=O)C(C)C)c1S(=O)(=O)c1ccccc1,102,103,15,15
Cc1nc2ccccc2c(=O)n1-c1cccc(NC(=O)C(C)C)c1,106,94,-19,16

# Reprinted at random: seven compounds from above
SMILES,Polio RdRp inh,Polio RdRp inh intensity,MenB inh,Mtb MbtI inh
N#CCSc1nc2ccc(N3CCOCC3)cc2c(=O)n1CCc1ccccc1,101,98,-19,3
CCNC(=O)c1snc(Nc2ncc(C)o2)c1N,101,103,4,10
O=C(NC1CC1)c1ccc2cn[nH]c2c1,100,100,-5,21
Cc1ccc(C)n1-c1cccc(S(=O)(=O)N2CCOCC2)c1,105,103,.,7
CC(C)(C)C(=O)NCC(c1cccnc1)N1CCN(c2ccccc2)CC1 (configuration not stated),102,102,-61,2
Cc1nc2ccccc2c(=O)n1-c1cccc(NC(=O)C(C)C)c1,106,94,-19,16
COC(=O)CSc1nc2nc3c(cn2n1)C(=O)CC(c1ccco1)C3 (configuration not stated),81,141,-56,-2

# Additional entries follow:
SMILES,Polio RdRp inh,Polio RdRp inh intensity,MenB inh,Mtb MbtI inh
Cc1ccc(NC(=O)c2oc3ccc(S(=O)(=O)N(C)C4CCCCC4)cc3c2C)cc1C,105,106,-11,-10
CCCCn1cnc2c1c(=O)n(Cc1nc3ccccc3s1)c(=O)n2CCC,103,101,-20,-2
N#Cc1ccccc1NC(=O)CC1Nc2ccccc2NC1=O (configuration not stated),102,102,-99,-1
Cc1noc2[nH]cnc(=S)c12,103,104,-24,15
O=C(CN1CCN(c2ccccn2)CC1)N(Cc1ccccc1)Cc1ccccc1,90,97,10,-26
COc1ccc(C)cc1NC(=O)c1ccccc1OC(F)F,102,100,-8,-9
Fc1cccc(F)c1N=Cc1cccnc1,102,102,.,-4
O=C(NCCCn1ccnc1)c1ccc(Cl)cc1,99,108,-11,-28
O=C(Nc1coc2ccccc12)c1ccc(C(F)(F)F)cc1,101,94,-20,.
N#Cc1c(NC(=O)CC2CCCC2)sc2c1CCC2,101,99,.,-5
CC1=C2C[C@H]3[C@@H](CC=C4C[C@@H](O)CC[C@@]43C)[C@@H]2CC[C@]12O[C@@H]1C[C@H](C)CN[C@H]1C2C (some centres not stated),100,104,-2,.
Cc1nc2sccn2c1-c1csc(Nc2cccc(Cl)c2C)n1,99,99,-11,70*
Cc1ccc2nc(CSc3nnc(COc4ccccc4Cl)o3)cn2c1,98,101,-9,-2
Nc1nc(-c2cccnc2)nn1C(=O)CCc1ccccc1,99,104,-1,1
O=C1CCC(=O)N1CCSC(=S)N1CCCC1,100,103,-15,-3
COc1ccc(OC)c(C(=O)CSc2nc3cccnc3n2C)c1,100,103,-11,-2
CCOC(=O)C1CCCN(C(=O)CCCN2C(=O)COc3ccc(C)cc32)C1 (configuration not stated),103,103,-10,-2
Cc1c(C(=O)O)oc2ccccc12,101,99,-16,17
COC(=O)c1ccc(OC(=O)c2cc(C)sc2C)cc1,105,105,-3,-4
COC(=O)C1(CO)NC(c2ccccc2F)C2C(=O)N(c3ccccc3)C(=O)C21 (configuration not stated),100,108,-7,-12
Cc1ccc(S(=O)(=O)/C(C#N)=C/c2sccc2C)cc1,102,103,-15,-4
CC1CC(C)CN(C(=O)COC(=O)c2cccc(S(=O)(=O)N(C)C)c2)C1 (configuration not stated),104,107,-4,-10
CS(=O)(=O)Nc1ccc2c(c1)CCC2,104,106,-6,-14
CCN1C(=O)N/C(=C/c2cn(Cc3ccccc3)c3ccccc23)C1=O,103,106,-34,-9
c1ccc2c(NN=C3CCCCCC3)nncc2c1,103,101,-15,8
COc1ccc(NC(=O)N2CCC(CN3CCCCC3)CC2)cc1OC,104,98,-23,0
CC1CCCCN1Cc1c(O)ccc2c(=O)c(-c3ccccc3)coc12 (configuration not stated),103&101,105&102,-4,-33
COC(=O)/C=c1\sc2n(c1=O)CCN=2,101,99,0,3
CSC1=NCCN1CC(=O)c1ccc(F)cc1,108,90,-18,2
N#Cc1cnc(SCC(=O)Nc2ccccc2C(F)(F)F)nc1N,102,106,4,-17
c1csc(CN=C2SCCN2C2CCCCC2)c1,98,97,10,11
CCCN=c1ssc(=O)n1CCC,91,93,0,67*
O=C1NNC(=S)C1C1CC1 (configuration not stated),99,103,17,83*
Cc1ccc(-n2c(Sc3cnccn3)nnc2-c2ccccc2)cc1C,103,98,11,15
O=C(O)/C=C/CC(=O)O,93,95,-12,-4
N#Cc1cccc(NC(=O)CSc2ncccn2)c1,101,95,-16,6
COC(=O)c1ccc(Nc2cc(=O)[nH]c(=O)[nH]2)cc1,104,102,-13,28
CCCCn1c(SCn2nnc3ccccc3c2=O)nc2cc(S(=O)(=O)N3CCCCC3)ccc21,101,105,0,26
Cc1ncsc1CCOC(=O)c1ccc2c(c1)S(=O)(=O)c1ccccc1C2=O,102,101,-5,-6
CN1CCN(Cc2nc(N)nc(Nc3ccccc3)n2)CC1,103,104,-22,-2
CN(CC(=O)Nc1ccc(F)c(F)c1F)CN1C(=O)C2CC=CCC2C1=O (configuration not stated),101,109,-8,-1
Cc1ccc(CNC(=O)Cn2c(=O)n(-c3ccc(C)c(C)c3)c(=O)c3c(C)c(C)sc32)cc1,100,102,-14,2
CSC(=CC(=O)c1ccco1)SC,104,101,-56,11
O=C(CCn1c(=S)oc2ccccc21)Nc1ccccc1F,103,107,-17,-12
CC(Sc1nc2cc(Cl)ccc2c(=O)n1Cc1ccco1)C(=O)Nc1ccc(Cl)cn1 (configuration not stated),111,107,5,-6
O=C(O)CNC(=O)c1ccc(Oc2ccccc2)cc1,105,103,-14,2
CCOC(=O)c1cccc(OCC(O)CNCC(c2ccc(OC)cc2)N2CCCC2)c1 (configuration not stated),98,95,-16,-2
OC1CCC(n2c(-c3ccccc3)nc(=S)c3c2CCCC3)CC1 (configuration not stated),103,100,-33,18
Cc1ccc(C(=O)C2=C(O)C(=O)N(CCc3ccccc3)C2c2ccncc2)o1 (configuration not stated),99,101,-14,-6
CSC(=NCc1ccccc1)Nc1cc(-c2ccccc2)[nH]n1,102,102,11,7
N#CC1COc2ccccc2O1 (configuration not stated),99,102,13,-1
CCSc1nnc2c3ccccc3n(CC)c2n1,101,101,-14,-7
CCn1c(C(=O)O)c(CC(=O)Nc2ccccc2F)c2ccccc21,101,95,-21,0
CCNc1nc(Cl)nc(N(C)C#N)n1,103,102,-10,-5
CCOC(=O)C1CCCCN1S(=O)(=O)c1ccc2ccccc2c1 (configuration not stated),101,103,-48,7
CC(C)=NOCC(=O)Nn1c(COc2c(C)cccc2C)nc2ccccc2c1=O,98,104,-9,-4
COc1ccc(CNC(=O)CN(C)c2ccccc2)cc1,104,108,-13,8
CC(OC(=O)CCc1nc(=O)c2ccccc2n1C)C(N)=O (configuration not stated),106,106,-8,-2
CC(C)(C)c1ccc(C2CC(=O)C(C=NCCN3CCNCC3)=C(O)C2)cc1 (configuration not stated),102,103,3,-4
Cc1cc(C(=O)NCc2cccn2C)nn1C,102,103,-12,-11

# More structures
SMILES,Polio RdRp inh,Polio RdRp inh intensity,MenB inh,Mtb MbtI inh
Nn1c(-c2ccncc2)nncc1=O,102,100,-27,-4
O=S(=O)(c1cc(Br)c(Br)s1)N1CCN(Cc2ccc3c(c2)OCO3)CC1,99,102,-10,-5
C/C(=N\Nc1ccccc1Cl)C(c1ccccc1)N1CCOCC1 (configuration not stated),103,107,-15,-11
Cc1ccc2c(c1)nnn2C1CCN(CC(=O)N2c3ccccc3CC2C)CC1 (configuration not stated),99,105,-47,-1
Cn1c2ccccc2c2nnc(SCCCC(=O)c3ccc4c(c3)OCCO4)nc21,106,108,3,-7
CCC(=O)N1c2ncnn2C(c2ccccc2OC)CC1c1ccccc1 (configuration not stated),104,102,-28,-7
O=C(CSc1ccccn1)NCCOc1ccccc1,102,99,23,75
CCn1cnc2c1c(=O)n(Cc1csc(-c3ccccc3)n1)c(=O)n2Cc1ccccc1,106,105,-19,28
O=C1ON=C(c2cccs2)/C1=C/C=C/c1ccccc1,100,113,-29,.
CCc1cc(C(=O)Cc2nc3ccccc3n2C)c(O)cc1O,104,103,.,-2
CCOC(=O)C1CCN(c2cc(C(=O)Nc3ccc(OCC)cc3)ccn2)CC1,99,101,12,0
CC1CCN(C(=S)SCC(=O)O)CC1,102,105,-42,3
COc1ccccc1C(=O)N=C1SC2CS(=O)(=O)CC2N1c1ccccc1 (configuration not stated),102,102,11,-4
CCCn1c(=O)c(=O)[nH]c2c(=O)oc3ccccc3c21,100,100,-12,11
NC1=NC(c2ccccc2)N2C(=N1)Sc1ccccc12 (configuration not stated),102,102,0,-7
Cc1ccc(CCNc2ccccc2)c[n+]1[O-],103,102,0,-3
Cc1cc(C)cc(CC(CC(=O)O)C(=O)NCc2ccccc2)c1 (configuration not stated),105,109,-8,.
CC1CCCC(C)N1C(=O)COC(=O)/C=C/c1ccccc1Cl (configuration not stated),104,108,-11,4
O=C(O)CSc1nnc2c(n1)OC1(CCCC1)Nc1ccccc1-2,100,97,-12,3
O=C1NC(=O)C(=Cc2ccccc2)C(=O)N1,103,101,-62,34
N#CC(C#N)=C(N)/C(C#N)=C/c1cccs1,98,108,-239,19
CCc1ccc(NS(=O)(=O)c2ccc(OC)cc2)cc1,107,106,1,.
CC(OC(=O)c1ccc(S(=O)(=O)NCc2ccco2)cc1)C(=O)Nc1ncc(Cl)cc1Cl (configuration not stated),102,100,-27,-11
COC(=O)c1cc(OC)c(OC)cc1NC(=O)c1nc(-c2ccccc2)oc1C,.,.,-15,13
CCOc1ccc(/C(=N/O)C(C)NO)cc1 (configuration not stated),101,102,15,0
CN(C)S(=O)(=O)c1ccc(-c2nc3ccccc3s2)cc1,100,108,-12,-6
N#CCSc1nc2ccccc2c(=O)n1CCCC(=O)NCC1CCCO1 (configuration not stated),101,102,0,-21
O=c1cc(O)sc2ccccc12,101,101,-202,31
c1ccc(C2CN3CCC2CC3)cc1 (configuration not stated),103,104,-6,-16
Cc1cc(=O)n(C)c(=O)n1CCCCO,104,108,-9,1
CCN(c1ccccc1)S(=O)(=O)c1ccc(C)cc1,108,105,0,.
O=C(O)c1ccccc1OCCN1CCCC1=O,105,102,-18,-4
CCC(=O)NC(Nc1sc2c(c1C(N)=O)CCCC2)(C(F)(F)F)C(F)(F)F,105,110,-3,.
O=C(NC1CCCC1)C(c1ccccc1)N(Cc1cccs1)C(=O)c1csnn1 (configuration not stated),103,102,23,0
Cc1cccc(Nc2nc(N)nc(C(F)(F)F)n2)c1,101,102,2,-18
Cc1cccc(-n2ccnc2SCC(=O)N2CCc3ccccc32)c1,103,99,-30,-3
CCC(=O)Nc1nc(-c2ccc3c(c2)CC(C)N3S(C)(=O)=O)cs1 (configuration not stated),101,100,-19,-6
COc1ccc(OC)c(N2C(=O)C=CC2=O)c1,99,96,.,97*
Cc1ccc(C(=O)Sc2n[nH]c(-c3cccs3)n2)cc1,99,105,7,53
CC(C)CN(CC(C)C)c1nnc(NC(=O)NCc2ccco2)s1,103,103,0,-8
CCOC(=O)c1c(C)n(CC)c2cc(Br)c(OC)cc12,106,107,.,-9
CN(c1ncnc2onc(-c3ccc(F)cc3)c12)C1CCCCC1,104,104,2,-30
C/C(=N\NC(=O)CN1CCCC1=O)c1ccc(NC2=NCCCS2)cc1,99,99,7,13
COc1ccc(C2C(C(=O)/C=C/c3ccccc3)=C(O)C(=O)N2CCO)cc1 (configuration not stated),106,104,-233,.

# Compound profiles (already shown):
# Record of O=C(O)c1ccccc1OCCN1CCCC1=O : Polio RdRp inh: 105; Polio RdRp inh intensity: 102; MenB inh: -18; Mtb MbtI inh: -4
# Record of Cc1cccc(Nc2nc(N)nc(C(F)(F)F)n2)c1 : Polio RdRp inh: 101; Polio RdRp inh intensity: 102; MenB inh: 2; Mtb MbtI inh: -18

# Source: PubChem (ICCB-Longwood Screening Facility, Harvard Medical School)
